High-throughput results: PubChem, National Center for Advancing Translational Sciences (NCATS)
aGal spleen mod – qHTS Assay for Inhibitors and Activators of Human alpha-Galactosidase From Spleen Homogenate; Alpha-galactosidase A (Homo sapiens), P06280; human spleen homogenate, 4MU-alpha-Gal fluorescence, 40 min; Potency, µM (series often up to 80 µM), inactives show at the highest dose activity change, negative = inhibition, actives largely listed as inhibitors; hit rate 0.008% among 240,000;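 also: 0% = enzyme with vehicle and -100% = no enzyme basal signal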
Target sequence (P06280 32-429 limits assumed): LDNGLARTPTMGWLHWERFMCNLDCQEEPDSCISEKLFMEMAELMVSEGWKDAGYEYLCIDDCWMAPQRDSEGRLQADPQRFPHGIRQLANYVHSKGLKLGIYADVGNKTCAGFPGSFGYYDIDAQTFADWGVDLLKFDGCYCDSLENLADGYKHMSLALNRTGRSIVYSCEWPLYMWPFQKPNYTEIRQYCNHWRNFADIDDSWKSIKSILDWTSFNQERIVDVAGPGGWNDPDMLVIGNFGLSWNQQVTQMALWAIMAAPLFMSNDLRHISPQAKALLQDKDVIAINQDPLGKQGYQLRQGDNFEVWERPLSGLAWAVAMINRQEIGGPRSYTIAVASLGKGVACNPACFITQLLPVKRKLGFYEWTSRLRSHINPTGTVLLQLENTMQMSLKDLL
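Human spleen homogenate (1 ug) as enzyme source, 4-methylumbelliferyl-alpha-D-galactopyranoside 1 mM final, citrate/phosphate pH 5.0 with 0.01% Tween-20. Compounds 40 min at 37C, NaOH/glycine stop; fluorescence Ex 365/Em 440, Hill-fit AC50.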
Epigenetic reg – Quantitative High-Throughput Screen for Regulators of Epigenetic Control. murine LDR cells, GFP reporter derepression, 30 h. Potency, µM (titrated, usually from 53.9 µM), for the others: at the highest dose GFP activation, usual class: activators. hit rate 0.2% among 280,000. AID 1865, 2009; also: % of control where 0% means no effect; nearly all actives have a fitted effect of over 60% in size
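In this reporter-derepression format, murine cells bearing a silenced integrated CMV-GFP locus incubate with test compound (30 h, 37 C), then are washed and imaged; fluorescent objects of 20–120 um count as induced cells.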
Tau fluor counter – Counterscreen qHTS for Inhibitors of Tau Fibril Formation, Fluorescence Polarization | tau K18 P301L (four-repeat tau fragment) Alexa594 fluorescence, heparin fibrillization | Potency, µM (top dose mostly 57.7 µM), for the others: top-dose activity change, negative = decrease | hit rate 0.93% among 280,000 | AID 1463, 2008; also: % is scaled to controls: 0 for no effect and ±100 for the full control effect; nearly all actives have a fitted effect of over 55% in size
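Human K18 P301L tau (15 uM unlabeled plus 0.24 uM Alexa 594-labeled, final) in 100 mM sodium acetate pH 7 was mixed with compound and 20 uM heparin and incubated 6 hr at 37 C.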
GAA inhib – qHTS Assay for Inhibitors of Human alpha-Glucosidase as a Potential Chaperone Treatment of Pompe Disease. Lysosomal alpha-glucosidase (Homo sapiens), P10253. purified human GAA, 4-MU-alpha-glucoside fluorescence. Potency, µM (doses to about 76.9 µM), inactives show top-dose activity change, negative = inhibition, actives largely listed as inhibitors. hit rate 0.005% among 200,000. AID 1466, 2008;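 also: plate controls were uninhibited enzyme wells for no effect and no-enzyme background for full effect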
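Human alpha-glucosidase, 4 nM, pre-mixed with test compounds before 400 uM 4-methylumbelliferyl substrate; 20 min room temperature at pH 5.0. Fluorescence read after pH 10 stop; AC50 values from Hill-equation fits.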
aGlu spleen mod – qHTS Assay for Inhibitors and Activators of Human alpha-Glucosidase From Spleen Homogenate; human spleen homogenate, 4-MU-alpha-glucoside fluorescence; Potency, µM (series often up to 79.9 µM), without a hit: at the highest dose activity change, negative = inhibition, actives largely listed as inhibitors; hit rate 0.006% among 240,000;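 also: 0% = enzyme with vehicle and -100% = no enzyme basal signal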
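Human spleen homogenate (1 ug) with 4-methylumbelliferyl-alpha-D-glucopyranoside (1 mM final) in 50 mM citrate/phosphate pH 5.0, 0.01% Tween-20; 40 min at 37 C. Stopped at pH 10; 4-MU fluorescence Ex 365/Em 440 nm; AC50 by Hill fit.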
GAA glycogen – qHTS Assay for Inhibitors and Activators of Human alpha-Glucosidase Cleavage of Glycogen. hit rate 0.38% among 300,000. Potency, µM (doses to about 76.4 µM), for the others: at the top dose activity change, negative = inhibition, actives largely listed as inhibitors. recombinant GAA, glycogen substrate, Amplex Red glucose oxidase fluorescence. AID 2100, 2009;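 also: 0% = full enzyme reaction and -100% = no-enzyme basal signal; the screen sought inhibitors and activators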
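qHTS, 1536-well; enzyme 4 nM final; cpd up to 77 uM; substrate bovine liver glycogen 30 ug; 50 mM citrate/phosphate pH 5.0, 0.01% Tween-20; 37 C, 40 min; Amplex Red detection 45 min RT; Hill fit → AC50.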
ALDH1A1 inh – qHTS Assay for Inhibitors of Aldehyde Dehydrogenase 1 (ALDH1A1). Purified ALDH1A1, NADH fluorescence, propionaldehyde substrate. Potency, µM (highest dose often 75.3 µM), inactives show at the highest dose activity, negative = inhibition, hits mostly inhibitors. hit rate 7.3% among 220,000. AID 1030, 2008; active = well fitted inhibition curve with a large enough effect, not every such curve was filed as active; inconclusive = small, poorly fitted or top-dose-only effect, or another doubt; inactive = no such curve, though single readings can be large or run the other way;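 also: plate controls were no enzyme wells and a reference inhibitor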
Target sequence (P00352 whole entry, looked up): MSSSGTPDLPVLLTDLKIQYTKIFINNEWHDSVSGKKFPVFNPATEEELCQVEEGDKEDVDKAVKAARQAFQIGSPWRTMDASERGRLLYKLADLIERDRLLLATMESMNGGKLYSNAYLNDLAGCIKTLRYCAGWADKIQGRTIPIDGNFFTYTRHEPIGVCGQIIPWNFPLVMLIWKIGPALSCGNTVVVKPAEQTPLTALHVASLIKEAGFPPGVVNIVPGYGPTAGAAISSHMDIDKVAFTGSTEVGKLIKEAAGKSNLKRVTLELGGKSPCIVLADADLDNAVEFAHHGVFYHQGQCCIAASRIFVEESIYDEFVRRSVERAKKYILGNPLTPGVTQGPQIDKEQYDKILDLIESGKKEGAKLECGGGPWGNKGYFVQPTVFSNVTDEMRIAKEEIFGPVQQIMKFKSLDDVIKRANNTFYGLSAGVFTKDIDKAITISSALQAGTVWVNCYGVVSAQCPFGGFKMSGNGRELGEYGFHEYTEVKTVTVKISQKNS
* hit, by the source's call; ? = inconclusive; nt = no result given; & = joins results of further samples; [ ] = another dose, or the depositor's remark. Unless noted, calls follow the shape of the dose curve; as a rule, active = well fitted curve in the direction sought with a large enough effect; inconclusive = small, poorly fitted or top-dose-only effect, or another doubt; inactive = no such curve, though single readings can be large; an effect the other way counts as inactive or inconclusive. Potency is read from the fitted curve at half-maximal effect.

| cpd | Structure | aGal spleen mod | Epigenetic reg | Tau fluor counter | GAA inhib | aGlu spleen mod | GAA glycogen | ALDH1A1 inh |
| --- | --- | --- | --- | --- | --- | --- | --- | --- |
| 1 | CC1CCN(c2cc(N3CCOCC3)c(F)cc2[N+](=O)[O-])CC1 | -2% | -3.2% | -20% | -13% | -6% | -4% | ? |
| 2 | O=C(c1ccccc1)c1cc(-c2ccccc2)on1 | 3% | 1.2% | -14% | 0% | -5% | -3% | ? |
| 3 | COc1ccc(/C=C/C(=O)NC(=S)N2CCSCC2)cc1 | -1% | -1.1% | -7% | 0% | nt | 2% | ? |
| 4 | CCOC(=O)CSc1nc(CC)nc2ccccc12 | 11% | -0.9% | -18% | 2% | 5% | -8% | 0% |
| 5 | CCC1Oc2ccc(C)cc2N(CC(=O)N(Cc2ccc(C)o2)C2CCCC2)C1=O (stereo unspecified) | -7% | ? | -8% | -11% | -5% | -14% | -26% |
| 6 | COc1ccc2[nH]c3c(N4CCN(Cc5ccc6c(c5)OCO6)CC4)ncnc3c2c1 | 9% | -1.9% | 20µM*[quencher] | -10% | 6% | -5% | ? |
| 7 | O=C(COCC(=O)Nc1cccc(C(F)(F)F)c1)Nc1cccc(C(F)(F)F)c1 | -3% | 1.7% | ? | ? | -12% | -15% | -1% |
| 8 | CCOc1ccccc1-c1cc(C(=O)N/N=C/c2ccc3c(c2)OCO3)c2ccccc2n1 | 3% | 0.0% | -27% | -9% | -10% | 6% | ? |
| 9 | COc1ccc(-c2cc(-c3cccs3)c(C#N)c(SCC(=O)NCc3ccccc3OC)n2)cc1 | 0% | 1.4% | -1% | -3% | -17% | 1% | ? |
| 10 | O=c1cc(C23CC4CC(CC(C4)C2)C3)[nH][nH]1 | 4% | -1.5% | -3% | -8% | 2% | -23% | -7% |
| 11 | COc1ccc(-c2c3c(=O)n(C)c(=O)n(C)c3cn2Cc2ccccn2)cc1 | 5% | 6.0% | -7% | ? | 0% | 14% | ? |
| 12 | CCCC(=O)Nc1cc2c(cc1C(=O)c1ccccc1)OCCO2 | ? | 0.9% | -12% | -2% | 0% | -12% | ? |
| 13 | CCCC(=O)Nc1cc(-c2nnc(OC)c3ccccc23)ccc1N1CCCCC1 | 4% | -0.9% | -10% | 0% | -19% | 9% | ? |
| 14 | COC(=O)CN1C(c2ccc(Cl)cc2)=Nc2ccc(Cl)cc2C1c1ccccc1 (stereo unspecified) | -1% | -1.0% | -10% | -8% | -7% | -11% | ? |
| 15 | CC(=O)N(CCC(Cc1ccccc1)c1ccc2c(c1)OCO2)Cc1ccccc1F (stereo unspecified) | 24% | 0.0% | -23% | 2% | -6% | -9% | 11% |
| 16 | O=C(O)CCC(=O)N1CCN(c2nc(-c3ccccc3Cl)c3cc(Br)ccc3n2)CC1 | 7% | -2.6% | 5% | -3% | -18% | 9% | ? |
| 17 | COc1ccc(-n2c3c(c(=O)[nH]c2=O)C(NC(C)=O)(C(F)(F)F)C(=O)N3)cc1 (stereo unspecified) | 0% | 3.4%&2.6% | 0%&-2% | -1% | nt | -1% | 11% |
| 18 | Cc1sc(NC(=O)C2C3CCC(C3)C2C(=O)O)c(C(N)=O)c1-c1ccc(C(C)(C)C)cc1 (stereo unspecified) | -6% | -1.6% | 3% | 0% | -1% | -5% | ? |
| 19 | COc1ccc(Cl)cc1N1C(=O)/C(=C\c2sccc2C)N=C1SCC(=O)NC1CC1 | 2% | 0.1% | ? | ? | -5% | -3% | ? |
| 20 | O=C1N=C(O)CN1/N=C/c1ccc(-c2ccc([N+](=O)[O-])cc2)o1 | 11% | -0.2% | -5% | nt | 3% | nt | 6% |

From no. 7 up to 20, copied from above:
| cpd | Structure | aGal spleen mod | Epigenetic reg | Tau fluor counter | GAA inhib | aGlu spleen mod | GAA glycogen | ALDH1A1 inh |
| --- | --- | --- | --- | --- | --- | --- | --- | --- |
| 7 | O=C(COCC(=O)Nc1cccc(C(F)(F)F)c1)Nc1cccc(C(F)(F)F)c1 | -3% | 1.7% | ? | ? | -12% | -15% | -1% |
| 8 | CCOc1ccccc1-c1cc(C(=O)N/N=C/c2ccc3c(c2)OCO3)c2ccccc2n1 | 3% | 0.0% | -27% | -9% | -10% | 6% | ? |
| 9 | COc1ccc(-c2cc(-c3cccs3)c(C#N)c(SCC(=O)NCc3ccccc3OC)n2)cc1 | 0% | 1.4% | -1% | -3% | -17% | 1% | ? |
| 10 | O=c1cc(C23CC4CC(CC(C4)C2)C3)[nH][nH]1 | 4% | -1.5% | -3% | -8% | 2% | -23% | -7% |
| 11 | COc1ccc(-c2c3c(=O)n(C)c(=O)n(C)c3cn2Cc2ccccn2)cc1 | 5% | 6.0% | -7% | ? | 0% | 14% | ? |
| 12 | CCCC(=O)Nc1cc2c(cc1C(=O)c1ccccc1)OCCO2 | ? | 0.9% | -12% | -2% | 0% | -12% | ? |
| 13 | CCCC(=O)Nc1cc(-c2nnc(OC)c3ccccc23)ccc1N1CCCCC1 | 4% | -0.9% | -10% | 0% | -19% | 9% | ? |
| 14 | COC(=O)CN1C(c2ccc(Cl)cc2)=Nc2ccc(Cl)cc2C1c1ccccc1 (stereo unspecified) | -1% | -1.0% | -10% | -8% | -7% | -11% | ? |
| 15 | CC(=O)N(CCC(Cc1ccccc1)c1ccc2c(c1)OCO2)Cc1ccccc1F (stereo unspecified) | 24% | 0.0% | -23% | 2% | -6% | -9% | 11% |
| 16 | O=C(O)CCC(=O)N1CCN(c2nc(-c3ccccc3Cl)c3cc(Br)ccc3n2)CC1 | 7% | -2.6% | 5% | -3% | -18% | 9% | ? |
| 17 | COc1ccc(-n2c3c(c(=O)[nH]c2=O)C(NC(C)=O)(C(F)(F)F)C(=O)N3)cc1 (stereo unspecified) | 0% | 3.4%&2.6% | 0%&-2% | -1% | nt | -1% | 11% |
| 18 | Cc1sc(NC(=O)C2C3CCC(C3)C2C(=O)O)c(C(N)=O)c1-c1ccc(C(C)(C)C)cc1 (stereo unspecified) | -6% | -1.6% | 3% | 0% | -1% | -5% | ? |
| 19 | COc1ccc(Cl)cc1N1C(=O)/C(=C\c2sccc2C)N=C1SCC(=O)NC1CC1 | 2% | 0.1% | ? | ? | -5% | -3% | ? |
| 20 | O=C1N=C(O)CN1/N=C/c1ccc(-c2ccc([N+](=O)[O-])cc2)o1 | 11% | -0.2% | -5% | nt | 3% | nt | 6% |

Other structures.
| cpd | Structure | aGal spleen mod | Epigenetic reg | Tau fluor counter | GAA inhib | aGlu spleen mod | GAA glycogen | ALDH1A1 inh |
| --- | --- | --- | --- | --- | --- | --- | --- | --- |
| 21 | Cn1nc(-c2ccccc2)cc1NC(=O)Nc1ccc(C(C)(C)C)cc1 | 3% | 0.0% | 13µM*[quencher] | nt | 1% | -4% | nt |
| 22 | CCOC(=O)NC1(NC2CCCCC2)Oc2ccccc2O1 | 3% | 0.7% | -16% | 3% | 3% | 8.9µM* | ? |
| 23 | O=C(Nc1ccc(C(F)(F)F)cc1)c1cc(-c2cccnc2)nc2ccc(Br)cc12 | 4% | 3.9% | -26% | -24% | -11% | 2% | 0% |
| 24 | Cc1cccc(NC(=O)Nc2nnc(-c3ccccc3)o2)c1 | 8% | 0.0% | 2% | 7% | 7% | 1% | 6% |
| 25 | COc1cc(C)c(Cl)c(C)c1S(=O)(=O)NCc1ccc2c(c1)OCO2 | -5% | -1.1% | -15% | -14% | -4% | -12% | -1% |
| 26 | O=C(COC(=O)c1ccc(NS(=O)(=O)c2ccc3c(c2)OCCO3)cc1)NC1CCS(=O)(=O)C1 (stereo unspecified) | 0% | 0.0% | -1% | -1% | 1% | 18% | -1% |
| 27 | O=C(/C=C/c1ccc(Cl)c([N+](=O)[O-])c1)Nc1cccc(NC(=O)c2ccco2)c1 | -9% | 0.0% | ? | 9% | -6% | -6% | ? |
| 28 | NC(=S)N/N=C/c1ccc(-c2cc(Cl)ccc2Cl)o1 | -4% | -0.3% | ? | -2% | -17% | -4% | ? |
| 29 | CCCc1nc(NCc2ccncc2)c2nnn(Cc3ccccc3F)c2n1 | 0% | 5.9% | 0% | 2% | -7% | 1% | 0% |
| 30 | CC1=CC(C)(C)Nc2ccc(OC(=O)C(C)N3C(=O)c4ccccc4C3=O)cc21 (stereo unspecified) | -3% | ? | ? | -3% | 0% | -24% | -12% |
| 31 | O=C(CCc1ccc(CCC(=O)c2cccs2)s1)c1cccs1 | -3% | 0.6% | -23% | -6% | -9% | 1% | -12% |
| 32 | C=CCOc1nc2c(c(=O)n(C)c(=O)n2C)n1Cc1ccc(Cl)cc1Cl | 5% | 0.0% | -7% | -4% | 1% | 3% | -3% |
| 33 | CC(C)c1ccc(-c2cc(C(=O)N3N=C(C(F)F)CC3(O)C(F)F)c3ccccc3n2)cc1 (stereo unspecified) | -16% | -1.5% | -3% | ? | -12% | -10% | ? |
| 34 | Cc1cc(C)c(C)c(S(=O)(=O)Nc2ccccc2C(=O)NCCCN2CCOCC2)c1C | -20% | 0.9% | ? | -2% | -2% | -14% | 1% |
| 35 | O=C(Nc1cnc2sccn2c1=O)c1ccccc1Cl | -2% | -5.7% | -6% | -4% | 1% | -2% | ? |
| 36 | OCCCNc1nc(-c2ccc(Cl)cc2)nnc1-c1ccc(Br)cc1 | -5% | -1.1% | -25% | -5% | -14% | -4% | 6% |
| 37 | Cc1cc(C)c2cc(C#N)c(SCC(=O)Nc3ccc4c(c3)OCO4)nc2c1 | 2% | ? | -25% | nt | 3% | 6% | nt |
| 38 | CCN(CC)CC(=O)Nc1ccc2c(c1)Nc1ccccc1CC2 | -4% | -1.0% | 16µM*[quencher] | -6% | -8% | -18% | 20µM* |
| 39 | CN(C)/C=C/C(=O)c1nnn(C2CCCCC2)c1NC1CCCCC1 | 1% | 0.0% | -15% | -14% | -8% | 26% | 14µM* |

By substructure, those above containing a COOH group.
| cpd | Structure | aGal spleen mod | Epigenetic reg | Tau fluor counter | GAA inhib | aGlu spleen mod | GAA glycogen | ALDH1A1 inh |
| --- | --- | --- | --- | --- | --- | --- | --- | --- |
| 16 | O=C(O)CCC(=O)N1CCN(c2nc(-c3ccccc3Cl)c3cc(Br)ccc3n2)CC1 | 7% | -2.6% | 5% | -3% | -18% | 9% | ? |
| 18 | Cc1sc(NC(=O)C2C3CCC(C3)C2C(=O)O)c(C(N)=O)c1-c1ccc(C(C)(C)C)cc1 (stereo unspecified) | -6% | -1.6% | 3% | 0% | -1% | -5% | ? |

Only part of the results is shown, so the mix of outcomes need not match the whole.
